NPYLR7 agonist: activates Aedes aegypti NPYLR7 receptor. HEK293T NPYLR7/Galpha15, GCaMP6s calcium fluorescence. activation, % at 10 µM. 270,000 compounds, 0.15% hits. AID 1259423; in the data active means activation above about 40%;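 further: 0% = vehicle and 100% = reference agonist at the receptor; some compounds past the cut are filed as inactive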
NPYLR7 agonist max-min: further read-out of NPYLR7 agonist, marked with its call; activation, %; measured here: Max-Min RFU normalised activation; some inactives read as strong as hits;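 span of the calcium signal over five minutes; 0% = vehicle and 100% = native peptide agonist; compound fluorescence can raise it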
* = called active by the depositor. The list is partial; the hit share may differ from the screen's.

Molecule,NPYLR7 agonist,NPYLR7 agonist max-min
CC(C)Oc1ccc(CN2CCC2(C)C(=O)Nc2ccc3c(c2)OCCO3)cc1 (configuration not stated),4,0
C[C@H](NC(=O)C1CC1c1ccccc1)C(=O)N1CCC(C(=O)N2CCOCC2)CC1 (some centres not stated),-9,-3
c1nc(N2CCC(c3nn[nH]n3)CC2)c2cc[nH]c2n1,15,14
CCOc1c(OC)cc(CNS(=O)(=O)c2ccc(C#N)cc2)cc1OC,0,13
Cc1nnc(NC(=O)CN2C(=O)c3cccc([N+](=O)[O-])c3C2=O)s1,4,3
CCOC(=O)c1c(NC(=O)C(C)Oc2ccccc2)sc2c1CCC2 (configuration not stated),15,5
CC(NC(=O)NC(c1nccs1)C1CC1)c1nnc2ccccn12 (configuration not stated),1,3
O=C(NCCN1CCOCC1)c1csc(COc2ccc([N+](=O)[O-])cc2)n1,-10,0
Cc1cn2nc(N3CCN(C)CC3CNC(=O)OC(C)(C)C)sc2n1 (configuration not stated),-2,-5
CC(C)NC(=O)c1nnc2n1CCN(C(=O)C1CC1)C2,9,4
NCCc1nc(NCCN2CCCOC2=O)c2ccccc2n1,7,4
O=C(c1cccc([N+](=O)[O-])c1)N1CCN(c2nc(-c3cccc(Br)c3)nc3ccccc23)CC1,18,29
O=C(NCC1CCCO1)c1csc(COc2ccccc2Cl)n1 (configuration not stated),0,6
C/C(=N/Nc1nc(Cl)c(C#N)c(Cl)c1Cl)c1ccc(N)cc1,-9,-13
Oc1[nH]c2ccccc2c1N=Nc1nnc2c(n1)[nH]c1ccccc12,15,11
O=C(CCc1c[nH]c2ccccc12)NC1CCCc2c1cnn2-c1ccccc1F (configuration not stated),5,3
O=C(NCCC1=CCCCC1)C1CCC(=O)N(CCCc2ccccc2)C1 (configuration not stated),3,1
O=C(OCC(=O)c1ccc(Cl)s1)c1ccco1,1,0
CC(=O)N=c1c(C#N)cc2c(=O)n3cccc(C)c3nc2n1Cc1ccco1,1,-1
COc1ccc(-c2cc(C(=O)NC(C)(C)C)n3nc(-c4ccccc4)cc3n2)cc1,-3,3

Molecule,NPYLR7 agonist,NPYLR7 agonist max-min
NC(=S)N/N=C\c1cn(-c2ccccc2)nc1-c1cccs1,-6,-13
Oc1ccc(O)c(Sc2nnnn2-c2ccccc2)c1,-3,-4
CC(C)(C)c1ccc(-n2c(C3CC3)n[nH]c2=O)cc1,18,11
CCCCS(=O)(=O)Nc1ccc(S(=O)(=O)NCC2CC2)cc1,-1,14
CCc1nc2c(OCCOc3ccc(F)cc3)cccn2c1N(C)C(=O)c1ccccc1F,-4,-8
COc1ccc(/C(C)=N/NC(=O)CSc2nnc(-c3ccccc3)n2-c2ccccc2)cc1,-9,-14
Cc1nn(CC(=O)N(CC(C)C)C2CCS(=O)(=O)C2)c(C)c1[N+](=O)[O-] (configuration not stated),0,2
CSc1nc2ncc3c(=O)n(C)ccc3n2n1,5,11
Cc1cc(C)n(C2CCN(C(=O)c3cccc(OC(F)F)c3)CC2)n1,-5,-2
COc1ccc(-n2c(-c3ccccc3)cc(C(=O)NCc3cccc(C(F)(F)F)c3)c2C)c(OC)c1,-3,-3
COc1ncc(CN(Cc2sccc2C)CC(C)C)cn1,-5,-12
NC(=S)NN=C1C2CC3CC(C2)CC1C3,4,1
CCC(C)NC(=O)c1cc(NC(=O)Nc2cccc3ccccc23)ccc1N1CCCC1 (configuration not stated),7,9
CCCc1cc(C(=O)NC(C)c2ccccn2)sc1C (configuration not stated),-1,-3
CCCNC(=O)C1(C)CCN(Cc2ccc(C)c3ccccc23)C1 (configuration not stated),2,2
CCOC(=O)C1(C)CCN1C(=O)c1cccc2ccccc12 (configuration not stated),5,3
O=C(Cc1n[nH]c(=O)c2ccccc12)OCc1cc(=O)oc2cc3c(cc12)CCC3,-2,-3
C=CCC(=O)N1CCC2(CCCN(CCc3ccccc3)C2)C1 (configuration not stated),2,1
Cc1cc(C(=O)N2CCN(c3nccc(-c4ccc(C(C)(C)C)cc4)n3)CC2)c(C)o1,-4,-8
CCCN(CC(=O)NCC(=O)Nc1ccc(OC)cc1)C(=O)c1ccc(Cl)cc1Cl,2,-6

Molecule,NPYLR7 agonist,NPYLR7 agonist max-min
O=C(O)c1cc2c(C(F)(F)F)cc(-c3ccco3)nc2o1,4,1
C=CCn1c(=O)c2c(nc3n2CCCN3c2cc(C)cc(C)c2)n(C)c1=O,-5,-7
CCc1[nH]n(-c2ccc(OC)cc2)c(=O)c1C1=C(N2CCOCC2)C(=O)N(C2CCCCC2)C1=O,5,7
COc1ccc(-n2nnnc2CN2CCN(S(=O)(=O)c3ccc(Cl)cc3)CC2)cc1,1,1
O=C(Cc1ccc(Cl)cc1)N1CCN(c2ccc3nnc(-c4ccco4)n3n2)CC1,2,-1
CCOCCn1c(=O)c2c(nc3n2CC(C)CN3c2ccc(C)cc2)n(C)c1=O (configuration not stated),10,5
COC(=O)c1ccc(-c2noc(CN(C)C3CCOC3)n2)cc1 (configuration not stated),5,4
CCN(C(=O)c1coc(COc2ccc(OC)cc2)n1)[C@H]1COC[C@@H]1O,2,1
CC(C)CCNC(=O)CCc1csc(NC(=O)c2ccc(=O)[nH]c2)n1,-8,-16
O=C(NCCCC1CCCCC1)C1CCN(c2ncccn2)CC1,8,3
CC(Cc1cccc(Br)c1)NC(=O)c1cnn2cccnc12 (configuration not stated),1,-2
C=CCCN(Cc1ccccc1)[C@@H]1[C@@H](O)C[C@@H]2C[C@H](c3ccccn3)OC[C@@]21O,16,21
COC(=O)c1ncn(CN(CC2CCCCC2)C2CC2)n1,11,9
Cc1nn(S(C)(=O)=O)c(C)c1S(=O)(=O)N(C)c1ccccc1,3,1
O=C(NCc1cccnc1N1CCCCCCC1)[C@H]1C[C@@H]2C=C[C@H]1C2,12,4
COc1ccccc1OCCCn1c(CCNC(=O)c2ccco2)nc2ccccc21,2,6
CN(C)CCCCC(=O)Nc1ccc(NC(=S)NC(=O)c2ccc(C(C)(C)C)cc2)cc1,-5,-8
CCN(CC)CCNC(=S)NC1CCCCC1,-3,-2
COc1ccc(C(=O)Nc2ccc(N3CCN(c4ccccc4OC)CC3)c(C(=O)NCc3ccccc3)c2)cc1,10,18
NC(=O)c1nn2c(C(F)(F)F)cc(-c3ccccc3)nc2c1Cl,-3,-7

Screens in order – NPYLR7 agonist, NPYLR7 agonist max-min
COc1ccc(F)cc1CSCc1nnc(C2CC2)o1
 : 5, 1
CNC(=O)C1Cc2c(-c3ccccc3Oc3ccccc3)ccnc2O1 (configuration not stated)
 : 16, 14
Cc1ccccc1CN1CCCN(C(=O)C(C)c2c(C)noc2C)CC1 (configuration not stated)
 : 9, 5
Cc1cc(C(=O)N2CCCC(CNC(=O)c3ccc(F)cc3)C2)n(C)n1 (configuration not stated)
 : -6, -9
COc1ccc(CCN(Cc2ccc(C)s2)C(=O)CN(CC2CCCO2)S(=O)(=O)c2c(C)cc(C)cc2C)cc1OC (configuration not stated)
 : 8, 14
CCCN(CC(=O)Nc1cc(C(C)(C)C)nn1-c1cccc(C)c1)C(=O)/C=C/c1ccccc1
 : -7, 0
COC(=O)C(C)CN(Cc1ccccc1)Cc1ccon1 (configuration not stated)
 : 4, 3
C=C1CC2C3CC[C@@]4(OCOC45COCO5)[C@@]3(C)C(O)CC2[C@@]2(C)CCC(=O)C=C12 (some centres not stated)
 : -6, -8
Cc1sc2nc(CSC(C)C(=O)NCCc3cccs3)[nH]c(=O)c2c1C (configuration not stated)
 : 1, 19
CCOc1ccc(-n2c(C)cc(C=NNc3ccc([N+](=O)[O-])cc3)c2C)cc1
 : -4, -7
CCC(C)NC(=O)c1c(-c2ccccc2)c(-c2ccccc2)nn(C)c1=O (configuration not stated)
 : 1, 25
CC1=NN(Cc2ccc(Cl)cc2Cl)c2nc3c(c(=O)n(C)c(=O)n3C)n2C1C (configuration not stated)
 : 0, 3
COc1ccc(Cl)cc1CC1(C)C(=O)Nc2ccc(-c3ccsc3)cc21 (configuration not stated)
 : 3, 4
Cc1ccc(Cn2cnc(-c3ccccc3)c2-c2nccn2C)c(F)c1F
 : 9, 3
C=CCSc1nnc2nc(C)cc(C)n12
 : 1, 8
Cc1ccc(N=Cc2nc(-c3ccc(Br)cc3)oc2O)c(C)c1
 : -4, 2
FC(F)(F)c1ccc2c(c1)Oc1sc(Cl)cc1NC2=S
 : -3, -2
CCn1nnc2c(SCc3cc(C)ccc3C)ncnc21
 : 5, 16
Cn1ncc2c(=O)n(CC(=O)Nc3ccc(SC(F)F)cc3)cnc21
 : 4, 1
CCn1c(N2CCN(Cc3ccc(Cl)c(Cl)c3)CC2)nc2c1c(=O)[nH]c(=O)n2C
 : -7, -10

Screens in order – NPYLR7 agonist, NPYLR7 agonist max-min
Cc1cc(=O)n2c3ccccc3n(CC(O)CN3CCCCC3)c2c1C#N (configuration not stated)
 : 1, -3
O=C1CN(C(=O)CCCc2nc3ccccc3s2)CCN1
 : 12, 4
O=C(c1cccc(-c2cn[nH]c2)c1)N1CCCC(CCc2ccc(F)cc2)C1 (configuration not stated)
 : -2, -3
Cc1c(Cl)cccc1NC(=O)C(C)N(C)Cc1nc2ccccc2o1 (configuration not stated)
 : -1, -3
CCc1nn2c(N3CCOCC3)cc(C)nc2c1-c1ccccc1
 : 4, 4
CN(C)c1cccc(Nc2nccc3[nH]c(-c4ccsc4)cc23)c1
 : 7, -5
O=C(NCC1CCN(Cc2ccccc2OC(F)F)C1)C1CCC1 (configuration not stated)
 : -2, -2
CCOc1nc(-c2ccc3c(c2)OCO3)n(-c2ccc(NC(=O)C(CC)c3ccccc3)cc2)n1 (configuration not stated)
 : -1, 10
CC(O)C1CCN(C(=O)c2cccc(C(F)(F)F)c2F)CC1 (configuration not stated)
 : 4, 3
COc1ccccc1/C=C/C1=NC(=C\c2cc(OC)c(OC)c(OC)c2)/C(=O)O1
 : -3, -5
O=C(NCCCN1CCOCC1)c1csc(CSc2nnc(-c3ccncc3)n2-c2ccccc2Cl)n1
 : 12, 19
CCc1ccc(N2CCn3c2nc2c3c(=O)n(CCC(C)C)c(=O)n2C)cc1
 : 7, 12
CC(C)C(Nc1ccc([N+](=O)[O-])cc1S(=O)(=O)N1CCOCC1)c1ccccc1 (configuration not stated)
 : -2, 8
Cc1cc(Oc2ccc(NC(=O)CNC(=O)OC(C)(C)C)cc2)n[nH]1
 : 4, 2
COc1ccc(OC)c(-c2cc(C(=O)N3CC(c4nc(-c5ccncc5)no4)C3)[nH]n2)c1
 : -4, -5
Cc1[nH]c(=O)sc1C(=O)NCc1ccc2c(c1)OCO2
 : -8, -4
O=C(CSc1nnc(-c2ccccc2)n1-c1ccccc1)N/N=C\c1cccc([N+](=O)[O-])c1
 : -9, -10
CCOC(=O)COC(=O)c1nsc(Cl)c1Cl
 : 1, -2
Cc1ccc(S(=O)/C(F)=C/c2ccccc2)cc1 (configuration not stated)
 : 9, 17
COc1ccc2ccccc2c1-c1cc(C(=O)N=Nc2c(O)[nH]c3ccccc23)[nH]n1
 : 3, 8

Screens in order – NPYLR7 agonist, NPYLR7 agonist max-min
CC(C)(C)c1cc2nc(C(=O)NCc3ccc(F)cc3)cc(-c3ccccc3F)n2n1
 : 11, 10
O=C(Cn1cnc2c(nnn2-c2ccc(F)cc2)c1=O)N1CCCCC1
 : 7, 13
CCOc1ccc(-c2ccnc(N3CCN(C(=O)C(OC(C)=O)c4ccccc4)CC3)n2)cc1 (configuration not stated)
 : 24, 32
CCSc1nnc(C)c2cnn(-c3ccc(F)cc3)c12
 : -15, -23
CCC(C)N(CC(=O)N(Cc1cccn1Cc1ccc(F)cc1)C1CCCCC1)C(=O)c1cccc(Br)c1 (configuration not stated)
 : 0, 5
CC(CNC(=O)c1ccc(F)cc1)N1CCN(C)CC1 (configuration not stated)
 : -8, -8
O=C1N[C@H]2C[C@@](O)(N1)[C@@H]1OC[C@H]2O1
 : 2, 60
O=C(CN1CCc2sccc2C1c1ccc(Cl)cc1)N1CCN(C(=O)c2ccccc2)CC1 (configuration not stated)
 : 6, -4
